Rce1 inhib – inhibitors of yeast Ras-converting enzyme; calls only; Q03530; hit rate 0.27% among 290,000; yeast membranes, quenched prenylated peptide cleavage fluorescence;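 active = fall in fluorescence gain of 50% or more versus controls, with final raw signal at or below 3038400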;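 note: plate controls were neutral control wells for no effect and wells lacking membranes for full effect; tested at 10 µM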
Target sequence (Q03530 whole entry, looked up): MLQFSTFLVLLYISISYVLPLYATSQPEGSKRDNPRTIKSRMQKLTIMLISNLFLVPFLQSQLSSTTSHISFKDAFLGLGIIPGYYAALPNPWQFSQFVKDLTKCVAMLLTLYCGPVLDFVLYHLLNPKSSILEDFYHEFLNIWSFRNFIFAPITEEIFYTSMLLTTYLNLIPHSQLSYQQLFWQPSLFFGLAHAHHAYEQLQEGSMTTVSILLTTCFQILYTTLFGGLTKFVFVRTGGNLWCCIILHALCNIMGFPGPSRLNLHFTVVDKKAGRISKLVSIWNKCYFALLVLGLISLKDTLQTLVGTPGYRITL
MT1-MMP act inh – inhibitors of human MT1-MMP activation; hit rate 0.061% among 360,000; HT1080 RFP-PRO-GFP cells, GFP/RFP ratio fluorescence, overnight; percent of plate control window, DMSO zero; P50281; GFP/RFP ratio change, % at 20 µM;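 active = GFP/RFP ratio change of at least 30% with cell ATP level not reduced by more than half and red fluorescence within 50% of control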; note: strong numbers were not always called active
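Assay system: HT1080 RFP-PRO-GFP cells | Dosing: 20 µM single dose, 1% DMSO | Incubation: Cells overnight before dosing, compound overnight, 37 °C, 5% CO2 | Evaluation: GFP/RFP fluorescence ratio | Control set: DMSO-only wells and HT1080 RFP-L50D-GFP cell wells as references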
Env fusion inh – blocks HIV Env-driven cell-cell fusion. HeLa-JRFL Env/CEM21 cell fusion, luciferase. inhibition, % at 12.3 µM. hit rate 1.1% among 360,000. AID 651610;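 active = mean replicate inhibition score of at least 50 and every replicate individually at or above 50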;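 note: 0% = plate neutral controls and 100% = maraviroc near 300 nM; one replicate is shown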
PABP polyA inh – blocks human PABP binding to poly(A) RNA; fluorescence polarization; inhibition, % at 35 µM; hit rate 1% among 290,000; AID 2014;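 active = 50% or more with normal probe brightness, or confirmed in later tests; about a fifth of its hits are not listed in these tables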;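 note: calls also rest on retests at 20 µM and on dose response follow-up; controls were probe without protein and protein plus probe with vehicle; some compounds called inactive have numbers as strong as hits; many hits fall short of the cut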
eIF4H inh – inhibitors of RNA binding by human eIF4H. eIF4H fluorescence polarization binding assay. inhibition, % at 35 µM. hit rate 0.94% among 290,000;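 active = 50% or more with normal probe brightness, or confirmed in later tests; about a fifth of its hits are not listed in these tables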;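 note: calls also rest on retests at 20 µM and on dose response follow-up; 0% = protein and probe with vehicle and 100% = probe without protein; strong numbers were not always called active; many hits fall short of the cut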
Yeast UUG start – yeast start codon fidelity modulation; AID 602363; hit rate 0.13% among 350,000; S. cerevisiae UUG-firefly luciferase reporter, luminescence/redox ratio; activity score, % at 18.7 µM;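 active = replicate mean at a twofold rise or more, about +100% in these data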;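 note: firefly luciferase made from a UUG start codon reports start codon fidelity; reporter light over untreated wells divided by growth signal over untreated wells; some hits fall short of that in this replicate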
CSC inhib – cancer stem cell inhibition; cancer stem cell-like cells viability, luminescence; inhibition, % at 7.5 µM; hit rate 1.1% among 300,000;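 active = mean at 75% or more and at least half the replicates too; tested in HMLE shEcad cells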;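 note: 0% = median of negative and 100% = median of positive control wells; the first replicate is given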
MT1-MMP act inh RFP – second read-out of MT1-MMP act inh, no call of its own (marks repeat the call); RFP signal change, %; measured here: RFP expression control read;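 0 = vehicle wells; hits needed this value within 50% of zero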
Numbers without * were called inactive; i = inactive; x = not tested or not shown; & = joins results of further samples.

Value order – Rce1 inhib, MT1-MMP act inh, MT1-MMP act inh RFP, Env fusion inh, PABP polyA inh, eIF4H inh, Yeast UUG start, CSC inhib
> CCOc1ccccc1NC(=O)Cn1nnc(-c2ccc(OCC)c(OCC)c2)n1
    i, 9, 4, x, -9, -6, -14, x
> COc1cccc(C(=O)Nc2cc(C(F)(F)F)ccc2Cl)c1
    i, -2, -2, 21, 4, -10, -13, 1
> O=C(Nc1ccc(F)cc1F)C1CCN(C(=O)c2ccc(Br)cc2)CC1
    i, 1, 3, -1, 6, -1, x, 1
> CCCCCCn1c(CN2CCCCC2CC)nc2c1c(=O)n(C)c(=O)n2C (centres undefined)
    i, -2, -7, -22, -1, -9, -14, 17
> O=C(O)C1CC=CCC1C(=O)NC1CCCCC1 (centres undefined)
    i, 2, 3, -6, 10, 4, -13, -6
> COc1ccc(CN2CCCC(CNC(=O)c3ccc(F)cc3)C2)c(F)c1 (centres undefined)
    i, -4, 4, -13, 6, -2, x, 9
> CCSc1nnc(NC(=O)/C=C/c2ccco2)s1
    x, 0, 1, -28, 0, 19, x, -7
> Cc1ccccc1-c1nc(CN2CCC(C(=O)NCc3cccs3)CC2)c(C)o1
    i, 4, 3, 7, 49, -5, x, -1
> OCCC1CN(Cc2cccc(-n3cccn3)c2)CCN1Cc1ccccc1 (centres undefined)
    i, 3, -2, -5, 3, 1, -12, 6
> COc1ccc(N(CC(=O)NC2CCCCCCC2)S(=O)(=O)c2c(C)nn(C)c2C)cc1
    i, -7, 1, -28, -2, -2, -4, 2
> COc1cc(C(=O)Nc2cc(-c3nc4cc(C)ccc4o3)ccc2C)cc(OC)c1OC
    i, -3, 3, x, -14, -9, 0, x
> CC(C)NC(=O)Nc1ccc2c(c1)C(=O)N([C@H](C)CO)C[C@@H](C)[C@@H](CN(C)C(=O)NC1CCCCC1)O2
    x, 0, 2, -10, x, x, 4&16, 15
> NC(=O)c1ccc(N2CCC(C(N)=O)CC2)c([N+](=O)[O-])c1
    i, 4, 0, -2, 68*, 93*, -12, -10
> CCOc1ccc2c(C)cc(=O)oc2c1OCC
    i, -1, 4, x, 2, 10, 1, -14
> COCCn1nnnc1C(c1ccccn1)N1CCN(c2cccc(C)c2C)CC1 (centres undefined)
    i, -3, -1, x, -2, -1, -17, 2
> CCOC(=O)c1c(N)sc(-c2ccccc2)c1C
    i, 0, 3, x, 0, 0, 12, 13
> CCCCCCCNC(=O)C1(CC2CC(c3ccccc3)=NO2)CCN(C(=O)OC(C)(C)C)CC1 (centres undefined)
    x, -10, -6, -6, x, x, 9, -4
> CCn1nc(C)c(CN2CCC(n3nccc3NC(=O)Cc3ccccc3)CC2)c1C
    i, 0, 3, 8, 0, -14, -4, 4
> C[C@]12c3[nH]c4ccccc4c3CCN1C(=O)C(CC(=O)NCCCn1ccnc1)C[C@@H]2C(=O)N1CCCCC1 (some centres undefined)
    x, -3, 2, 8, x, x, -6, 5
> CCOc1ccccc1N(CC(=O)Nc1ccc2c(c1)OCCO2)S(C)(=O)=O
    i, 1, 7, x, 1, 1, 2, x
> C/C(N)=C(/C#N)C(=O)CSc1nc2ccccc2[nH]1
    i, 4, -1, -27, 46, 45, -26, -4
> CCCCn1c(SCC(=O)N2CC(C)CC(C)C2)nc2cc(S(N)(=O)=O)ccc21 (centres undefined)
    i, -6, -6, 19, -8, -4, -8, -9
> COc1ccc(CNCCC(c2ccc(F)cc2)c2ccc(OC)cc2)cc1 (centres undefined)
    i, -6, -5, 34, -7, -2, x, 26
> CCOC(=O)C1(Cc2cccc(OC)c2)CCCN(C(=O)CCN2CCCO2)C1 (centres undefined)
    i, -2, -1, -29, 0, -8, -23, -8
> CSc1nc(Sc2ccccc2)c2ccccc2n1
    i, -6, -2, x, 16, 0, x, x
> CC(OC(=O)Cc1ccsc1)C(=O)Nc1ccc(Cl)cn1 (centres undefined)
    i, 2, 1, x, x, x, -10, x
> O=S(=O)(Nc1cccc(CCc2ccccn2)c1)c1cc(Cl)ccc1Cl
    i, 5, -7, 0, -8, -11, x, 3
> CCOc1ccc(OCCSc2nc(C)cc(=O)[nH]2)cc1
    x, 5, 3, x, -9, -5, -25, 0
> Cc1cc(Br)c2[nH]c3c(c2c1)CCCC3=O
    i, -3, -3, x, 4, 2, x, -3
> Cc1[nH]c2ccccc2c1/C=C(\C#N)C(=O)NCC1CCCO1 (centres undefined)
    i, 3, 4, -19, -4, -6, x, 8

Exported as labelled records: entries from further up.
CCCCCCCNC(=O)C1(CC2CC(c3ccccc3)=NO2)CCN(C(=O)OC(C)(C)C)CC1 (centres undefined)
  Rce1 inhib = x
  MT1-MMP act inh = -10
  MT1-MMP act inh RFP = -6
  Env fusion inh = -6
  PABP polyA inh = x
  eIF4H inh = x
  Yeast UUG start = 9
  CSC inhib = -4
O=S(=O)(Nc1cccc(CCc2ccccn2)c1)c1cc(Cl)ccc1Cl
  Rce1 inhib = i
  MT1-MMP act inh = 5
  MT1-MMP act inh RFP = -7
  Env fusion inh = 0
  PABP polyA inh = -8
  eIF4H inh = -11
  Yeast UUG start = x
  CSC inhib = 3
Cc1[nH]c2ccccc2c1/C=C(\C#N)C(=O)NCC1CCCO1 (centres undefined)
  Rce1 inhib = i
  MT1-MMP act inh = 3
  MT1-MMP act inh RFP = 4
  Env fusion inh = -19
  PABP polyA inh = -4
  eIF4H inh = -6
  Yeast UUG start = x
  CSC inhib = 8
NC(=O)c1ccc(N2CCC(C(N)=O)CC2)c([N+](=O)[O-])c1
  Rce1 inhib = i
  MT1-MMP act inh = 4
  MT1-MMP act inh RFP = 0
  Env fusion inh = -2
  PABP polyA inh = 68*
  eIF4H inh = 93*
  Yeast UUG start = -12
  CSC inhib = -10

(cont.)
Value order – Rce1 inhib, MT1-MMP act inh, MT1-MMP act inh RFP, Env fusion inh, PABP polyA inh, eIF4H inh, Yeast UUG start, CSC inhib
> CCOC(=O)N1CCN(C(=O)C2CCN(S(=O)(=O)CC)CC2)CC1
    i, -4, 0, -18, 3, -4, -3, -9
> CC(CCc1ccccc1)NC(=O)Cc1cccs1 (centres undefined)
    i, -2, -1, 0, -11, -4, x, 6
> COc1ccc(NC(=O)N2CCCC2C(=O)NCc2ccccc2Cl)cc1 (centres undefined)
    i, -3, 1, -1, 1, 4, -21, -13
> COc1ccc2c(c1)C(=O)CC(c1ccc3c(c1)OCCO3)O2 (centres undefined)
    i, x, x, -20, 11, 0, 1, 12
> COc1cccc(NC(=O)COC(=O)Cc2ccc(Br)cc2)c1
    i, 0, 3, 21, -11, 2, x, -10
> Cc1ccc(-c2nc(SC(C)C(=O)N3CCOCC3)n[nH]2)cc1 (centres undefined)
    i, 1, 3, -4, -6, -6, -15, 1
> Cc1ccnc(NC(=O)c2cccc(S(=O)(=O)N3CCN(c4ccccc4)CC3)c2)c1
    i, 1, -10, -35, x, x, -44, 9
> COc1cccc(NC(=O)CN(C)C(=O)c2cc(-c3ccccc3)nc3ccc(C)cc23)c1
    x, 0, -7, 30, x, x, -10, x
> Nc1ccccc1-c1nc2ccccc2c(=O)o1
    i, 3, 9, 1, 8, 3, -26, -10
> CCC(NC(=O)CNC(=O)CNC(=O)c1ccc(Cl)cc1Cl)c1ccc(C)cc1 (centres undefined)
    i, 2, -2, -26, -4, 3, -26, -4
> COc1ccc(OC)c(CCNC(=O)C(C)n2nc(C)c3c(C)n(-c4ccccc4)nc3c2=O)c1 (centres undefined)
    i, -1, -18, 24, -5, -1, -2, -3
> COc1cc(C(=O)N2CCN(C(=O)c3ccccc3)CC2)cc(OC)c1OC
    i, 0, -1, x, -3, -6, -12, -13
> O=C(CCc1ccc(S(=O)(=O)NC2CCCCC2)cc1)N(Cc1ccccc1)Cc1ccccc1
    i, -16, -24, x, -10, -13, -3, x
> CN(C)CCOc1ccc(C(C)(C)c2ccccc2)cc1
    i, -1, 0, -9, -1, 4, x, 146*
> CCN(c1ccccc1)S(=O)(=O)c1ccc(OC)c(NC(=O)CN2C(=O)NC(C)(C)C2=O)c1
    x, -4, -3, 1, x, x, -15, x
> CCOC(=O)c1cc2sccc2n1CC(=O)Nc1ccc(OC)cc1
    x, -2, 2, -135, 5, -1, -9, 1
> c1cncc(-c2nnc3sc(C4CCCCC4)nn23)c1
    i, 5, 3, x, -12, -4, -16, 4
> C/C(=N\NC(=O)c1cc(C)nc2ccccc12)c1cccs1
    i, 3, -3, 21, -8, 2, x, -21
> COc1cccc(/C=N/n2cnc3c(cnn3-c3ccccc3)c2=O)c1
    i, 2, -10, 1, -8, 4, 9, 7
> CCn1c(COc2ccc(C)cc2)nnc1SCC(=O)Nc1ccc2c(c1)OCCO2
    i, 5, 4, x, -10, -4, -23, 11
> Cc1ccccc1-c1noc(-c2cccs2)n1
    i, -3, 3, -175, -16, -15, -13, -9
> CCOC(=O)c1ccc(Nc2nc(N3CCOCC3)nc(N3CCOCC3)n2)cc1
    i, 4, 3, 13, 6, -17, -11, 4
> CC(=O)NC(NC(=S)Nc1c(C)n(C)n(-c2ccccc2)c1=O)C(Cl)(Cl)Cl (centres undefined)
    x, 2, 4, -11, -10, -5, x, x
> CCCc1cc(CN(C)C(=O)CC2C(=O)NCCN2Cc2ccccc2C)[nH]n1 (centres undefined)
    i, 1, 2, 1, 10, 7, 0, -8
> COc1cc(C2C(S(=O)(=O)c3ccccc3)CON2C)ccc1OCc1ccc(F)cc1 (centres undefined)
    i, x, x, -17, -9, 7, x, 7
> O=C(NCc1cccnc1)Nc1cccc(C(F)(F)F)c1
    i, 1, 2, -11, 28, -4, -8, -15
> COc1ccc(CC(=O)Nc2ccc(S(=O)(=O)Nc3cc(C)on3)cc2)cc1OC
    x, 2, 3, x, -2, -3, -5, -4
> Cc1cc(OCC(=O)Nc2cccnc2)c2c(C)cc(=O)oc2c1
    i, 1, 1, 2, 7, -4, -17, -3
> O=C(CN1CCN(CC(=O)Nc2ccccc2C(F)(F)F)CC1)Nc1ccccc1F
    i, -1, -5, x, 3, 1, -9, 5
> CC(C)n1cnc2cc(NCc3ccccn3)ccc21
    i, -2, 0, x, 10, 5, -40, -12
> COCCN(C(=S)Nc1cc(C)cc(C)c1)C(C)c1cccs1 (centres undefined)
    i, 2, 3, 8, 3, -9, x, -10
> CN1CN=C(NS(=O)(=O)c2ccc([N+](=O)[O-])cc2)NC1
    i, -5, 2, -11, 3, 23, 7, 1
> CC1(C)CC(CC(=O)Nc2ccccc2[N+](=O)[O-])C(=O)O1 (centres undefined)
    i, -7, 2, -34, 0, 5, -30, -2
> O=C(CSCc1cc(=O)n2nc(C3CC3)sc2n1)Nc1ccccc1Cl
    i, 0, 6, -1, 0, -4, -1, 1
> O=C(CN1CCN(CC(=O)Nc2ccc(Cl)cc2)CC1)Nc1ccc(F)cc1
    i, 6, -3, -3, -7, -3, -12, 3
> Cc1ccccc1NCc1ccc(O)c2ncccc12
    i, -21, -20, x, -15, 15, -16, -7
> O=C(NCc1csc(-c2cccs2)n1)C1CC1
    i, 0, 3, -12, -1, -12, x, -6
> Cc1c(C#N)c(N=CN(C)C)c(C(=O)c2ccc(Br)cc2)n1-c1ccccc1
    i, -1, -2, x, 2, -1, x, -1
> O=C(Nc1ccc(F)cc1)OCCOc1ccc([N+](=O)[O-])cc1
    i, 6, 2, -14, -2, -1, -19, 8
> Cn1nc(C(C)(C)C)cc1C(=O)N1CCCCC1c1cc(C(=O)Nc2ccccc2)no1 (centres undefined)
    x, -3, -16, -7, x, x, -3, x

Assay outcomes from PubChem BioAssay.

This is a random part of the collection; 3% or so of the library scored in one or more.
